T cruzi inh – T. cruzi replication inhibition. hit rate 1.4% among 300,000. inhibition, % (no concentration beside the values). T. cruzi beta-gal in NIH3T3, luminescence, 90 h;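 active means mean inhibition across valid replicates above about 55%, limit read from the data; inconclusive means mean below that limit but half or more replicates reach it; inactive means mean below it, under half of replicates reach it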;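 further: signal also drops with host cell toxicity which is not excluded here; 0% = plate median of DMSO wells and 100% = zero luminescence signal; higher percent means less beta-gal luminescence so fewer parasites; stock transfer was 50 nL into about 50 µL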
Calb FLC – C. albicans growth modulation with fluconazole. C. albicans CaCi-2 (fluconazole-resistant clinical isolate) + fluconazole, Alamar Blue growth, 48 h. growth inhibition, % (concentration not given with the values). hit rate 0.57% among 300,000. AID 1979;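 active means most replicates above 75%; inconclusive means exactly half above 75%; inactive means most below 75%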;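 further: all wells also contain fluconazole at 8 µg/ml as a sub-toxic cotreatment; 0% = median of DMSO wells and 100% = median of geldanamycin control wells; wells of about 8 µL received 7.5 nL stock; the first replicate is given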
ALR inh – blocks human ALR sulfhydryl oxidase activity; P55789; purified ALR, DTT oxidation, H2O2 HRP-luminol luminescence; inhibition, % (concentration not given with the values); hit rate 3.8% among 290,000; AID 485317;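 active means mean and each replicate at 75% or more; inconclusive means only one of the two met; inactive means neither met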;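 further: stock transfer was 7.5 nL into about 7.5 µL; 0% = neutral wells and 100% = wells with inactivated enzyme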
Target sequence (P55789 whole entry, looked up): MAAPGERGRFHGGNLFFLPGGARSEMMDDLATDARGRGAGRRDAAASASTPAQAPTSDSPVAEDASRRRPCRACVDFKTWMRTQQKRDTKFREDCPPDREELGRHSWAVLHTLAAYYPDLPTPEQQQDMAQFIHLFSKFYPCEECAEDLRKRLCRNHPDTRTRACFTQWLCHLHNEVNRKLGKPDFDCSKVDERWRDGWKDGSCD
Beta2AR agonist – human beta-2 adrenergic receptor agonism by FAP | P07550 | Am2.2-beta2AR cells, FAP receptor internalization, flow cytometry; reference of the scale not given here | response, % (concentration not given with the values) | hit rate 0.43% among 340,000;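 active means response above a set limit, near 3 SD of response in nonfluorescent compounds, cut at about 42% in these data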;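 further: stock transfer was 100 nL into about 11 µL; a reference agonist was the positive control; negative values mostly stem from fluorescent compounds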
Target sequence (P07550 whole entry, looked up): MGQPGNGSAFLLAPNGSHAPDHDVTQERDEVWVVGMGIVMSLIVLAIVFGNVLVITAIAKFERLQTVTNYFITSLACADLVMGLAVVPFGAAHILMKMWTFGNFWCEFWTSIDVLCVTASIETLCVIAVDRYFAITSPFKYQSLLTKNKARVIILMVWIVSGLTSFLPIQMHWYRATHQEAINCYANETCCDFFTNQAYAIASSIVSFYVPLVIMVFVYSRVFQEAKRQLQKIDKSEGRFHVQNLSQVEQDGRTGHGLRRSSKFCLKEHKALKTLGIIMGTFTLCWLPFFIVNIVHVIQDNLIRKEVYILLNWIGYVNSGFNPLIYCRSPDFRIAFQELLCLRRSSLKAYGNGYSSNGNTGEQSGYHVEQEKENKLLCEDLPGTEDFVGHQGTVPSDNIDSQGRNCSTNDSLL
Beta apoptosis – blocks beta cell apoptosis | INS-1E cytokine-induced death, ATP luminescence, 48 h; percent of positive-control rescue, neutral wells zero | protection from apoptosis, % (no concentration beside the values) | hit rate 0.8% among 300,000;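 active means all replicates at 75% or more, or half of them and the mean; inconclusive means half reach 75% but not the mean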;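 further: 0% = cytokine-treated negative control wells and 100% = positive control rescue; higher means more ATP so stronger rescue from cytokine killing; wells of about 40 µL received 100 nL stock; the first replicate is given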
LANA-H2B inh – blocks KSHV LANA binding to histone H2A/H2B; Q9QR71; hit rate 0.6% among 320,000; AID 2629; cell-free LANA-H2A/H2B peptide, fluorescence polarization; inhibition, % (no concentration beside the values); in the data active means inhibition mostly above about 10%, no sharp cut-off; inactive means mostly below about 6.7%;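 further: stock transfer was 7.5 nL into about 10 µL; 0% = median of vehicle wells and 100% = median of positive control wells; one replicate is shown; the record names a cut of 25% in any replicate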
Bfl-1 A1 inh – inhibitors of the anti-apoptotic protein A1, read as caspase activation. MEF A1-2A-BIM cells, Caspase-Glo 3/7 luminescence, 3 h; percent of clofoctol response, vehicle zero. caspase activation, % (test concentration not listed). hit rate 0.066% among 330,000. AID 2462;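 active means over half of replicate activation scores above 10%, or exactly half above 10 with the replicate mean above 10; inconclusive means replicate mean below 10 yet half the replicates above 10; inactive means over half of replicates below 10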;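 further: wells of about 30 µL received 50 nL stock; many hits fall short of the cut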
rRNA inh HTS – inhibits bacterial ribosomal RNA function over humanized ribosomes. E. coli WT GFP vs humanized-ribosome RFP mutants, fluorescence, 24 h; stronger effect = lower value; DMSO median 0, no signal -100. GFP signal change (wild-type ribosome), % (test concentration not listed). hit rate 1.6% among 350,000;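 active means significant combined selectivity score with lowered wild-type GFP, culture density cut under 30%, mutant RFP and density less affected; inactive means any of these conditions unmet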; further: one replicate is shown; some compounds called inactive have numbers as strong as hits
rRNA inh HTS OD600 – further read-out of rRNA inh HTS, marked with its call; OD600 change, %; measured here: OD600 growth;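 optical density of the mix in the first replicate; 0 = DMSO median and -100 = no signal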
rRNA inh HTS RFP – also measured in rRNA inh HTS; calls as there; RFP signal change, %; measured here: RFP humanized mutant strains;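 first replicate; 0 = DMSO median and -100 = no signal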
Numbers without * were called inactive; & = joins results of further samples. The list is partial; count on the stated rates, not on these rows.

How did CC(NC(=O)COC(=O)c1cc(S(=O)(=O)N2CCOCC2)ccc1F)c1ccccc1 (stereo unspecified) do in these assays?
ALR inh: 2; Beta2AR agonist: 1; Beta apoptosis: -6; LANA-H2B inh: 0.6; Bfl-1 A1 inh: 2.0; rRNA inh HTS: -4; rRNA inh HTS OD600: -6; rRNA inh HTS RFP: 2.8

Results for O=C(/C=C/c1ccccc1)c1ccc2c3c(cccc13)CC2 ?
T cruzi inh: 5; Calb FLC: -4; ALR inh: 3; Beta2AR agonist: 7; LANA-H2B inh: -3.3; Bfl-1 A1 inh: -0.3

Results for CCN(CC)S(=O)(=O)c1cccc(C(=O)N[C@@H](C)c2nc3ccccc3[nH]2)c1 ?
T cruzi inh: -4; Calb FLC: 6; Beta apoptosis: -4; Bfl-1 A1 inh: 0.7; rRNA inh HTS: -6; rRNA inh HTS OD600: -14; rRNA inh HTS RFP: 1.7

Results for COc1cc(Cl)c(C)cc1NC(=O)CSc1ccc(C)cc1 ?
T cruzi inh: 9; Calb FLC: 3; ALR inh: 1; Beta2AR agonist: 1; Beta apoptosis: 5; LANA-H2B inh: -0.5; Bfl-1 A1 inh: 0.2; rRNA inh HTS: 6; rRNA inh HTS OD600: 6; rRNA inh HTS RFP: -9.5

What do the screens show for `CNC[C@H]1Oc2ccc(NC(=O)Cc3cn(C)c4ccccc34)cc2CC(=O)N([C@@H](C)CO)C[C@H]1C`?
ALR inh: 0; Beta2AR agonist: 0; Beta apoptosis: -9; LANA-H2B inh: 16*; Bfl-1 A1 inh: 1.3; rRNA inh HTS: 2&5; rRNA inh HTS OD600: -2&-5; rRNA inh HTS RFP: -1.8&2.2

How did Cc1onc(-c2c(F)cccc2Cl)c1C(=O)Nc1cccc(S(=O)(=O)NCc2ccco2)c1 do in these assays?
T cruzi inh: 10; Calb FLC: 10; ALR inh: -1; Beta2AR agonist: 2; Beta apoptosis: 1; LANA-H2B inh: -1.9; Bfl-1 A1 inh: 1.2; rRNA inh HTS: -27; rRNA inh HTS OD600: -28; rRNA inh HTS RFP: -2.4

How did CCOc1ccc(C2N(c3ccc(OC)cc3)C(=O)C3CCCN32)cc1OC (stereo unspecified) do in these assays?
T cruzi inh: -9; Calb FLC: 1; ALR inh: -71; Beta2AR agonist: -3; Beta apoptosis: -2; LANA-H2B inh: -0.5; Bfl-1 A1 inh: 0.8; rRNA inh HTS: 9; rRNA inh HTS OD600: 11; rRNA inh HTS RFP: 0.8

What do the screens show for `Cc1ccc(NS(=O)(=O)c2cccc(C(=O)NNC(=O)c3ccco3)c2)c(C)c1`?
T cruzi inh: -3; Calb FLC: -3; ALR inh: 5; Beta2AR agonist: -7; Beta apoptosis: 4; LANA-H2B inh: -1.2; Bfl-1 A1 inh: 0.0; rRNA inh HTS: 0; rRNA inh HTS OD600: -6; rRNA inh HTS RFP: 5.7

How did O=C(NCc1ccc(F)cc1)C(=O)NCC1OCCCN1S(=O)(=O)c1cccs1 (stereo unspecified) do in these assays?
T cruzi inh: -8; Calb FLC: 1; ALR inh: 2; Beta2AR agonist: 3; Beta apoptosis: -2; LANA-H2B inh: -1.7; Bfl-1 A1 inh: 0.0; rRNA inh HTS: 2; rRNA inh HTS OD600: 7; rRNA inh HTS RFP: 1.3

Results for COc1ccc(-c2csc(NCCn3c(C)nc4cc(C(F)(F)F)ccc43)n2)cc1 ?
ALR inh: -6; Beta2AR agonist: -3; Beta apoptosis: 0; LANA-H2B inh: -2.2; Bfl-1 A1 inh: -1.0; rRNA inh HTS: 7; rRNA inh HTS OD600: 7; rRNA inh HTS RFP: -4.4

How did O=C(NNC(=O)c1ccc(S(=O)(=O)N2CCCCC2)cc1)c1ccc(F)cc1 do in these assays?
T cruzi inh: 9; Calb FLC: -1; Beta2AR agonist: -4; Beta apoptosis: 3; LANA-H2B inh: 11; Bfl-1 A1 inh: -0.5; rRNA inh HTS: 4; rRNA inh HTS OD600: 2; rRNA inh HTS RFP: -0.8

Results for CC(=O)NCCc1c[nH]c2ccc(OCC(O)CNC(C)(C)C)cc12 (stereo unspecified) ?
T cruzi inh: -8; Calb FLC: 1; ALR inh: -27; Beta2AR agonist: 1; Beta apoptosis: 5; LANA-H2B inh: -6.0; Bfl-1 A1 inh: -0.2; rRNA inh HTS: 10; rRNA inh HTS OD600: 12; rRNA inh HTS RFP: 2.5

Results for CCc1nnc(NC(=O)CSc2nc(SC)ns2)s1 ?
T cruzi inh: -11; Calb FLC: 81*; Beta2AR agonist: 3; Beta apoptosis: -7; Bfl-1 A1 inh: -0.9; rRNA inh HTS: 11; rRNA inh HTS OD600: 17; rRNA inh HTS RFP: 0.0

Results for CCOC(=O)C(=O)NNc1ccc(C)cc1 ?
T cruzi inh: inconclusive; Calb FLC: 10; ALR inh: 100*; Beta2AR agonist: 11; Beta apoptosis: -8; LANA-H2B inh: 2.5; Bfl-1 A1 inh: 0.5

How did CC(C)CCNC(=O)CN(C(=O)CCC(=O)Nc1nccs1)C1CCCCC1 do in these assays?
T cruzi inh: -12; Calb FLC: 4; ALR inh: -2; Beta2AR agonist: 0; Beta apoptosis: 1; LANA-H2B inh: 3.6; Bfl-1 A1 inh: 0.4; rRNA inh HTS: 6; rRNA inh HTS OD600: 12; rRNA inh HTS RFP: -1.6

What do the screens show for `COc1ccc(NC(=O)c2oc3ccccc3c2NC(=O)c2ccco2)c(OC)c1`?
T cruzi inh: 22; Calb FLC: -6; ALR inh: -1; Beta2AR agonist: 8; Beta apoptosis: -1; LANA-H2B inh: -2.4; Bfl-1 A1 inh: -0.8

Results for O=C1OC(/C=C/c2ccc(Cl)cc2Cl)=NC/1=C\c1cccs1 ?
T cruzi inh: -27; Calb FLC: -3; ALR inh: 63; Beta2AR agonist: 23; Beta apoptosis: -4; LANA-H2B inh: -0.6; Bfl-1 A1 inh: -0.7; rRNA inh HTS: -19; rRNA inh HTS OD600: -15; rRNA inh HTS RFP: 8.8

How did CS(=O)(=O)Nc1ccc(C2=NN(S(C)(=O)=O)C(c3ccc4c(c3)OCO4)C2)cc1 (stereo unspecified) do in these assays?
T cruzi inh: -7; Calb FLC: -16; Beta2AR agonist: -1; Beta apoptosis: 1; LANA-H2B inh: 2.0; Bfl-1 A1 inh: -0.1

What do the screens show for `O=C(COC(=O)c1cc(=O)c2ccccc2o1)NC1CCCCC1`?
T cruzi inh: -23; Calb FLC: 1; ALR inh: 1; Beta2AR agonist: 4; Beta apoptosis: -3; LANA-H2B inh: 4.3; Bfl-1 A1 inh: -0.8; rRNA inh HTS: 11; rRNA inh HTS OD600: 9; rRNA inh HTS RFP: -1.7

Results for C(/C=C/c1ccccn1)=C\c1ccccc1 ?
T cruzi inh: 7; Calb FLC: -4; ALR inh: -8; Beta2AR agonist: -2; Beta apoptosis: -4; LANA-H2B inh: 8.9; Bfl-1 A1 inh: -4.0; rRNA inh HTS: -6; rRNA inh HTS OD600: -3; rRNA inh HTS RFP: 4.1

Results for CCN(CC(=O)Nc1ccc(NC(C)=O)cc1)C(=O)CCCN1C(=O)c2ccccc2C1=O ?
T cruzi inh: -4; Calb FLC: -3; ALR inh: 0; Beta2AR agonist: -5; Beta apoptosis: -1; LANA-H2B inh: 2.9; Bfl-1 A1 inh: 1.0; rRNA inh HTS: 13; rRNA inh HTS OD600: 8; rRNA inh HTS RFP: 1.4

What do the screens show for `CC1CCCCN1S(=O)(=O)CCNC(=O)c1ccccc1` (stereo unspecified)?
T cruzi inh: -14; Calb FLC: 1; ALR inh: 3; Beta2AR agonist: -6; Beta apoptosis: -1; LANA-H2B inh: 1.0; Bfl-1 A1 inh: 0.2; rRNA inh HTS: 8; rRNA inh HTS OD600: 6; rRNA inh HTS RFP: 1.4

Results for Cc1ccc(-c2csc(N)n2)s1 ?
T cruzi inh: -10; Calb FLC: 0; ALR inh: 99*; Beta2AR agonist: 1; Beta apoptosis: -2; LANA-H2B inh: -2.3; Bfl-1 A1 inh: 0.3

How did O=C(Oc1cccnc1)c1ccc(Cl)c(Cl)c1 do in these assays?
T cruzi inh: 3; Calb FLC: 2; ALR inh: 66; Beta2AR agonist: 2; Beta apoptosis: 3; LANA-H2B inh: -1.1; Bfl-1 A1 inh: 0.7

How did COc1ccccc1N1CCNC(C)C1=O (stereo unspecified) do in these assays?
T cruzi inh: -10; Calb FLC: 9; ALR inh: -9; Beta2AR agonist: 6; Beta apoptosis: -5; LANA-H2B inh: -2.5; Bfl-1 A1 inh: 0.3; rRNA inh HTS: 14; rRNA inh HTS OD600: 14; rRNA inh HTS RFP: -0.9

Results for C#Cc1ccc([C@@H]2C=C(C(=O)N3CCN(Cc4ccccc4)CC3)O[C@H](OCC)[C@H]2CCCO)cc1 ?
T cruzi inh: 27; Calb FLC: 12; Beta2AR agonist: -4; Beta apoptosis: 12; LANA-H2B inh: -4.4; Bfl-1 A1 inh: 1.7; rRNA inh HTS: -5; rRNA inh HTS OD600: -9; rRNA inh HTS RFP: 24

What do the screens show for `CC1=C(C(=O)OC(C)C)C(c2ccc(C)o2)NC(=O)N1` (stereo unspecified)?
T cruzi inh: -12; Calb FLC: 5; ALR inh: 5; Beta2AR agonist: 6; Beta apoptosis: -1; LANA-H2B inh: -4.0; Bfl-1 A1 inh: -0.1

How did O=C(NNS(=O)(=O)c1ccc(F)cc1)c1cnn(-c2ccccc2)c1C(F)(F)F do in these assays?
T cruzi inh: 12; Calb FLC: 4; ALR inh: 19; Beta2AR agonist: -2; Beta apoptosis: 1; LANA-H2B inh: -6.1; Bfl-1 A1 inh: -0.6; rRNA inh HTS: -8; rRNA inh HTS OD600: -1; rRNA inh HTS RFP: 5.9

Results for COc1ccc(N2CCN(C(=S)Nc3ccc(S(N)(=O)=O)cc3)CC2)cc1 ?
T cruzi inh: 3; Calb FLC: 12; ALR inh: 33; Beta2AR agonist: 5; Beta apoptosis: 5; LANA-H2B inh: -1.1; Bfl-1 A1 inh: 0.2; rRNA inh HTS: -19; rRNA inh HTS OD600: -23; rRNA inh HTS RFP: 14

What do the screens show for `O=C(COc1cc2oc(=O)cc(-c3ccccc3)c2cc1Cl)NCCN1CCOCC1`?
T cruzi inh: 1; Calb FLC: -5; ALR inh: -4; Beta2AR agonist: -4; Beta apoptosis: -7; LANA-H2B inh: -7.3; Bfl-1 A1 inh: -0.1; rRNA inh HTS: 1; rRNA inh HTS OD600: -8; rRNA inh HTS RFP: -2.7

What do the screens show for `COc1ccc(S(=O)(=O)N2CCCC(C(=O)NC3CC3)C2)cc1Cl` (stereo unspecified)?
T cruzi inh: -2; Calb FLC: -5; ALR inh: 5; Beta2AR agonist: -4; Beta apoptosis: -3; LANA-H2B inh: -0.1; Bfl-1 A1 inh: 0.5; rRNA inh HTS: 5; rRNA inh HTS OD600: 3; rRNA inh HTS RFP: -5.3

What do the screens show for `COc1ccc(Cl)cc1C(=O)Nn1cnc2ccccc2c1=O`?
T cruzi inh: 10; Calb FLC: 3; ALR inh: -3; Beta2AR agonist: -18; Beta apoptosis: 1; LANA-H2B inh: -9.6; Bfl-1 A1 inh: 0.2; rRNA inh HTS: 11; rRNA inh HTS OD600: 2; rRNA inh HTS RFP: 4.1

Assay outcomes (PubChem BioAssay)
